TRPML1 ag: human mucolipin-1 channel agonism; Q9GZU1; TRPML1-expressing cells, Ca2+ dye fluorescence, FDSS; host cell line not named in the record; reference of the full effect not given here; activation, % (no concentration beside the values); hit rate 0.12% among 410,000; AID 624414; in the data active = activation above about 50%; inconclusive = about 30% to 50%; inactive = below about 30%; further: 0% is about no effect; the text of the record puts the active cut at 80%
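In this qHTS format, compounds were pin-transferred onto Ca8-dye-loaded TRPML1-DL cells induced with Tet overnight, and intracellular Ca2+ fluorescence was recorded kinetically for 110 s after a 10 s baseline. A subsequent 4uM final 54-4 (EC80) addition followed by a second 110 s read served as the antagonist phase.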
D2 PAM: potentiates the human D2 dopamine receptor allosterically. P14416. DiscoveRx D2 beta-arrestin cells, luminescence, 90 min; 100% = 57 uM dopamine signal. potentiation, % (concentration not given with the values). hit rate 0.23% among 360,000; active = potentiation of 50% or more; inconclusive = 30% to 50%; inactive = 30% or less;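 further: compound concentration not given in the record; tested on top of an EC20 dose of dopamine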
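D2 cells co-treated with compound plus 50 nM dopamine (EC20) for 90 min at 37 deg C to detect potentiation. Beta-arrestin recruitment was read as enzyme-fragment luminescence after 1 h at ambient temperature. Full response was set by 57 uM dopamine.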
TRPML1 blocker: human mucolipin-1 channel inhibition; Q9GZU1; TRPML1-inducible cells, Ca2+ dye fluorescence, FDSS; stronger effect = lower value; inhibition of EC80 agonist-evoked calcium signal; activity change, negative = inhibition, % (test concentration not listed); hit rate 0.02% among 390,000; AID 624415; in the data active means activity change below about -50%; inconclusive means about -30% to -50%; inactive means above about -30%;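 further: stimulus is agonist 54-4 at its EC80 concentration; on the % scale 0 is the no-effect control and ±100 the full control effect; compound concentration not given in the record; the text of the record puts the active cut at -80%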
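Calcium fluorescence in TRPML1-DL cells induced overnight with Tet: a 110 s read after compound pin addition, then a 110 s antagonist read after challenge with 54-4 at 4 uM final (EC80).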
D2 ag: activates the human D2 dopamine receptor; P14416; DiscoveRx PathHunter D2 beta-arrestin, luminescence, 90 min; 100% = 57 uM dopamine signal; activation, % (concentration not given with the values); hit rate 0.084% among 360,000; AID 624465; in the data active = activation above about 40%; inconclusive = about 15% to 40%; inactive = below about 15%; further: compound concentration not given in the record; the text of the record calls up to 30% inactive
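Agonist mode: compounds alone added to overnight-plated D2 PathHunter cells for 90 min at 37 C, with 57 uM final dopamine (EC100) defining full response. Beta-arrestin recruitment detected by chemiluminescent reagent, read after 1 h at ambient temperature.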
Six1-Eya2 blk: blocks human Six1 binding to Eya2. AlphaScreen GST-Six1/His-Eya2 binding, biochemical; stronger effect = lower value; control for the full effect not named in the record. activity change, % (no concentration beside the values). hit rate 0.56% among 360,000. AID 651725; in the data active = activity change below about -65%; inconclusive = about -30% to -65%; inactive = above about -30%; further: on the % scale 0 is the no-effect control and ±100 the full control effect; compound concentration not given in the record
Target sequence (O00167 whole entry, looked up): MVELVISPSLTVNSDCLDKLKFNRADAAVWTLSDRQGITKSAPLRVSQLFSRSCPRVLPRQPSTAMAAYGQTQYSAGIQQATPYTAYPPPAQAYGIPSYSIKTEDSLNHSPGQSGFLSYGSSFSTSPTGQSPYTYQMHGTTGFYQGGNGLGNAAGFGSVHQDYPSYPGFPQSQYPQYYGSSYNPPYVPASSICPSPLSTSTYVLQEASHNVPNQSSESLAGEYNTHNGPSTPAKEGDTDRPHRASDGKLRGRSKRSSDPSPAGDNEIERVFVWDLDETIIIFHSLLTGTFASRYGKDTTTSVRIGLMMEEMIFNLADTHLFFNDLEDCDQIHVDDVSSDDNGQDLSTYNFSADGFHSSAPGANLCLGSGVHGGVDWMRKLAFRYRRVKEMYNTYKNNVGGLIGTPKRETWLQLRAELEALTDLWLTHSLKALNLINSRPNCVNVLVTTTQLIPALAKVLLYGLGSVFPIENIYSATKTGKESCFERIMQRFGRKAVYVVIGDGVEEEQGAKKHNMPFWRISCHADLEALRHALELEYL
Target sequence (Q15475 whole entry, looked up): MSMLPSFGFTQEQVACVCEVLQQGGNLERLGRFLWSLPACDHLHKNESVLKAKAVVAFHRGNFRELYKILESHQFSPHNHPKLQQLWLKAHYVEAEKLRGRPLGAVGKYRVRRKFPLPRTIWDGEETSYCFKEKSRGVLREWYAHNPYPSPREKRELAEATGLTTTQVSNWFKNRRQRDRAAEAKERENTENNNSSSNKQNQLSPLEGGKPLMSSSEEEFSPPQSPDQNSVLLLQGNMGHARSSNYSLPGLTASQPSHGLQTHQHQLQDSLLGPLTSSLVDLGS
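GST-Six1 + His-Eya2 (5X stock: 250/500 nM); Tris pH 8.0, 300 mM NaCl, 0.05% BSA, 0.02% Tween 20; GSH donor/Ni acceptor beads; 1 h 37 °C dark; AlphaScreen readout.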
PINK1 expr mod: PINK1 expression modulation; hit rate 0.2% among 410,000; Potency, µM (series often up to 76.6 µM), for inactives: at the top dose activation (PINK1 increase), most hits filed as activators; PINK1 immunofluorescence, high-content cytometry, 24 h; active = well fitted activation curve with a large enough effect; inconclusive = small, poorly fitted or top-dose-only effect; inactive = flat fitted curve, though single readings scatter; cell line not stated here;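 further: potency means the concentration at half of the fitted maximal effect; % of control where 0% means no effect; nearly all actives have a fitted effect of over 65% in size; a mitochondrial uncoupler was the plate control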
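Measures PINK1 amount and localization on or inside mitochondria by immunofluorescence. Stable cells get compounds at 5 concentrations for 24 hours before fixation and staining; CCCP controls included.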
* = called active by the depositor; ? = inconclusive; . = no result given; [ ] = remark or other dose.

molecule	D2 PAM	Six1-Eya2 blk	D2 ag	PINK1 expr mod	TRPML1 ag	TRPML1 blocker
CC(C)(C)OC(=O)N1CCC[C@H]1C(=O)NCC1CCC(C(=O)O)CC1 (stereo partly specified)	-5.0	0.0	-3.9	-2.1%	-0.8	0.0
Cc1sc2ncn(CC(=O)NCCCN3CC(C)CC(C)C3)c(=O)c2c1S(=O)(=O)N1CC(C)CC(C)C1 (stereo unspecified)	0.7	9.5	-1.6	-1.5%	0.4	-6.0
CCN(CC)CCNC(=S)Nc1ccc2nc(N3CCCC3)cc(C)c2c1	-7.6	-2.6	-2.2	-0.4%	3.6	6.0
CC(C)OC(=O)c1nn2c(C(F)(F)F)cc(-c3ccc(Br)o3)nc2c1Br	-3.5	-15.8	1.2	?	1.2	11.8
CCCCCSc1nnc(C)c(=O)[nH]1	-6.2	2.5	-3.0	16.0%[38.3 µM]	-0.3	10.0
Cc1ccc2nc(-c3ccc(NC(=O)CN(c4ccccc4C)S(C)(=O)=O)cc3)sc2c1	-23.2	0.6	-0.8	11.4%	-0.1	-16.3
Oc1ccc(C[C@H]2CNC(=S)N2C[C@H]2CCCN2C[C@H](Cc2ccccc2)N2C[C@H](Cc3ccccc3)N(CC3CCCCC3)C2=S)cc1	.	-5.9	.	2.9%	0.1	.
CN1C(=O)C(O)(CC(=O)c2ccccn2)c2cc(Br)ccc21 (stereo unspecified)	-64.2	-6.7	-16.2	5.1%	-0.9	-0.9
COCCCN=C1NN=C(c2cc(C)n(Cc3ccccc3Cl)c2C)CS1	-12.1	-21.5	-1.5	?	-1.0	3.1
CCOC(=O)N1CCN(C(=O)C2CCCN(c3ncnc4c3sc3cccc(F)c34)C2)CC1 (stereo unspecified)	-0.8	19.4	0.6	2.5%	0.3	-17.1
COc1cc(-c2cc3n(C)c(C)c(CCC(=O)O)c(=O)n3n2)cc(OC)c1OC	.	.	.	0.6%	-0.6	15.5
CCOCCn1c(=O)c2c(nc3n2CC(C)CN3CCc2ccccc2)n(C)c1=O (stereo unspecified)	-5.4	-1.7	-6.0	1.5%	-0.7	-0.2
CSc1cccc(NC(=S)NC(=O)c2cccnc2)c1	-41.9	15.3	-7.5	0.0%	.	.
CC1CCN(C(=O)COC(=O)CCC(=O)c2cccs2)CC1	-20.0	4.7	-0.2	4.6%	-0.4	5.2
C#CCn1c(=NC(=O)c2ccccc2[N+](=O)[O-])sc2cc(S(C)(=O)=O)ccc21	5.2	5.4	7.4	14.9%	-0.5	5.7
Cc1ccc(CNC(=O)CSc2nc3ccccc3c(=O)n2CCCO)cc1	-8.1	1.6	0.7	-2.0%[38.3 µM]	0.2	11.1
Cc1ccccc1C(=O)N/N=C/c1ccc([N+](=O)[O-])s1	6.3	8.2	2.1	?	1.9	-2.4
CC(=O)c1c(C)[nH]c(C(=O)Nc2cccc3ccccc23)c1C	-8.3	-15.6	-0.2	4.6%	0.3	-12.4
CCOc1ccc(/C=C2\CCC(C3CCCC3)C2=O)cc1 (stereo unspecified)	-0.3	-1.0	2.3	0.7%	0.5	26.6
CCOc1ccc(S(=O)(=O)Nc2cccc(OC)c2)cc1	-8.2	2.9	-0.6	7.8%[38.3 µM]	3.3	3.5

Continued:
molecule	D2 PAM	Six1-Eya2 blk	D2 ag	PINK1 expr mod	TRPML1 ag	TRPML1 blocker
COc1ccccc1CNC(=S)NCCc1ccccc1	-18.4	-12.1	-3.7	-1.6%	2.1	-0.3
COCCNC(=O)Cn1cnc([N+](=O)[O-])n1	-6.3	7.2	3.0	-1.2%	1.8	-2.5
Cc1[nH]n2cnnc2c(=O)c1Br	-0.1	4.0	0.8	-0.7%	0.7	31.8
Cc1cc(NC(=O)CSCC(=O)Nc2ccccc2Oc2ccccc2)no1	9.0	7.8	-2.2	0.5%	1.0	53.9
Cn1c(=O)[nH]c(=O)c2c1nc(NC1CCCCC1)n2Cc1ccccc1	-8.3	-6.3	0.7	-1.9%	2.0	-10.7
Nc1nonc1-n1nnc(C(=O)N/N=C/c2ccccc2F)c1-c1cccs1	-7.7	-1.6	0.8	3.2%	0.9	17.3
Cc1cc2c(c(=O)n1Cc1ccc3c(c1)OCO3)C(c1cccnc1)C(C#N)=C(N)O2 (stereo unspecified)	4.3	-1.8	-0.3	51.4%[38.3 µM]	-0.9	14.0
O=C(CSc1ncnc2nc[nH]c12)Nc1ccc(Br)cc1Cl	-8.2	4.2	-1.1	-0.1%	-0.2	8.1
Cc1ccc2[nH]c3c(=O)[nH]ncc3c2c1	-3.1	1.8	-0.3	1.1%	-0.1	48.7
C/C(N)=C(/C#N)C(=O)COC(=O)C1CCC(C(C)(C)C)CC1 (stereo unspecified)	-8.7	7.7	5.2	2.0%	0.3	-21.2
Cc1ccc(NC(=O)CN2C(=O)NC3(CCCCC3C)C2=O)cc1S(=O)(=O)N1CCCCC1 (stereo unspecified)	-1.3	-3.4	-0.3	-0.7%	-0.3	10.7
NC(=O)CNC(=O)C1CCN(S(=O)(=O)c2ccc(-n3cnnn3)cc2)CC1	-1.3	-4.4	-1.1	-0.5%	-0.1	-9.3
Nc1cc(C(=O)OCC(=O)NCCC2=CCCCC2)ccc1Cl	-5.0	-0.8	-3.2	3.0%	0.2	-10.8
Nc1[nH]c(C(=O)c2ccccc2)c(-c2ccc(Br)cc2)c1C(=O)NCCc1c[nH]c2ccccc12	.	-28.4	.	4.1%	-0.5	.
Cc1cc(NC(=O)c2cc(Cl)ccc2Cl)ccc1-c1cc2ccccc2oc1=O	.	.	.	2.1%	0.4	28.4
Cc1ccc(S(=O)(=O)Nc2ccc3[nH]ccc3c2)cc1	-6.1	-0.4	10.2	1.4%	1.8	18.2
CCc1c(C)sc(NC(=O)CSc2nc3c(c(C(F)(F)F)n2)CCc2ccccc2-3)c1C#N	-6.2	4.4	1.9	15.8µM*	1.7	-18.0
C=CCNC(=O)CCC(=O)NNc1nc2ccccc2c2nc(-c3ccccc3)nn12	-7.1	2.6	-2.4	-1.5%	-0.2	2.3
CCCCC(=NCCO)C1=C(O)C(C(=O)OC)C(C)(C)CC1=O (stereo unspecified)	-9.7	11.7	-0.3	-2.3%	-0.2	9.0
CC(C)(C)NC(=O)NC(=O)COC(=O)C1CC(=O)N(Cc2ccccc2)C1 (stereo unspecified)	15.4	5.8	2.2	-1.2%	-0.2	-14.2

More records.
molecule	D2 PAM	Six1-Eya2 blk	D2 ag	PINK1 expr mod	TRPML1 ag	TRPML1 blocker
CCC(=O)N1CCCC(C)(C(=O)Nc2ccc(OC)c(F)c2)C1 (stereo unspecified)	-3.1	0.3	-16.3	0.2%	-0.5	.
CNC(=O)c1c(NC(=O)CS(=O)(=O)c2ccc(F)cc2)sc(C)c1C	2.7	5.2	-1.3	1.4%	0.9	9.6
CC(C)N(Cc1ccccc1)S(=O)(=O)c1ccc(-c2cc(C(F)(F)F)on2)s1	.	.	.	3.3%	0.6	-3.5
C[C@@H]1CN([C@@H](C)CO)C(=O)CCCn2nncc2CO[C@H]1CN(C)C(=O)c1ccccc1	-3.8	-1.2	-2.7	1.2%	0.0	18.7
O=C(Cc1ccc([N+](=O)[O-])cc1)Nc1cccc(C(=O)N2CCCCC2)c1	-8.1	1.5	-0.6	2.0%	-0.6	2.8
O=C(c1cccs1)N1CCN(Cc2ccc3c(c2)OCO3)CC1	4.6	1.3	46.9*	-1.6%	-0.6	14.4
CCCOc1ccc(N2C(=O)CC(N(Cc3ccco3)C(=O)CC)C2=O)cc1 (stereo unspecified)	-15.1	-7.1	-6.4	1.3%	-0.4	16.9
CCOC(=O)C1=C(C)N(c2nonc2NC(C)=O)C(N)=C(C#N)C1c1ccccc1F (stereo unspecified)	2.8	-0.2	-4.4	0.5%	-0.7	4.8
C=CCN(CC=C)CCOc1ccccc1[N+](=O)[O-]	-18.3	-5.0	-2.4	1.0%	0.5	14.9
CCCC1OC2CC3C4CCC5=CC(=O)C=CC5(C)C4C(O)CC3(C)C2(C(=O)O)O1 (stereo unspecified)	0.6	-0.6	2.7	2.4%	-0.6	-7.5
COc1ccc(-c2ccc(-c3noc(-c4ccccc4C)n3)c(OC)n2)cc1	20.3	8.4	0.8	8.9%	0.4	-16.8
CC(C)CC(/C(O)=C(\C#N)c1nc2ccccc2[nH]1)N1C(=O)c2ccccc2C1=O (stereo unspecified)	-2.7	0.6	0.2	16.2%	1.8	-1.5
Cc1cccc(NC(=O)CN(C)S(=O)(=O)c2cnc[nH]2)c1	-6.0	-4.6	-1.6	3.0%	-0.6	15.2
CCc1ccccc1-n1nnc(-c2nc(-c3ccccc3F)no2)c1C	.	.	.	2.1%	4.5	58.2
CCOC(=O)C1=C(NC(=S)NC(=O)c2ccccc2)c2ccccc2CC1(C)CC (stereo unspecified)	-34.4	-14.9	-8.7	0.6%	0.2	11.1
Cc1cc2c(cc(C(=O)O)n2C)s1	2.3	-13.2	-3.2	-0.9%	-0.3	-7.3
CCn1cc(C(=O)NCC(OC)OC)c(=O)c2cc(S(=O)(=O)N(C)C3CCCCC3)ccc21	2.0	-5.7	-0.1	-1.6%	0.1	2.9
O=C(CSc1nc2ncc(Br)cc2[nH]1)Nc1ccccc1-c1ccccc1	-7.2	0.4	2.0	?	2.2	-1.2
Cc1ccccc1C(=O)N1CCN(c2ccc(NC(=S)NC(=O)c3ccco3)cc2)CC1	-12.9	-20.9	0.9	-1.8%	0.2	0.1
CC(C)c1csc(CN2CCC(CO)(Cc3ccccc3)CC2)n1	-12.2	1.0	-0.5	1.5%	0.5	20.0

Continued:
molecule	D2 PAM	Six1-Eya2 blk	D2 ag	PINK1 expr mod	TRPML1 ag	TRPML1 blocker
O=C(CN1C(=O)c2ccccc2C1=O)OCC(=O)c1ccccc1	-4.3	-3.8	-4.7	-0.5%	-0.6	4.7
c1ccc(CCc2nc(-c3cccnc3)no2)cc1	-1.1	3.1	-3.4	0.7%	-0.8	-0.3
O=C1NC(=O)C2C3c4ccccc4C(c4ccccc43)C12 (stereo unspecified)	11.6	-0.8	-1.7	.	-0.1	3.6
c1coc(CSSCc2ccco2)c1	-4.7	?	-3.0	5.6%	1.3	0.3
COc1ccc(C(=O)COc2ccccc2C#N)cc1	11.3	19.3	-7.2	-0.8%	-0.4	-11.5
Nc1nnc(SCC(=O)N2CCc3ccccc3C2)s1	-2.5	4.2	-4.7	-0.1%	-0.1	-15.3
Cc1ccc(C(=O)Nc2ccc3cn[nH]c3c2)cc1S(=O)(=O)N1CCCCC1	-22.1	?	-8.7	-2.0%	0.2	-14.1
COCCCn1c(N)c(-c2nc3ccccc3n2C)c2nc3ccccc3nc21	-4.0	?	0.2	1.4%[38.3 µM]	?	10.2
CN(C)C=NC(=O)/C(C#N)=C1\CCc2ccccc2N1	-1.9	-4.1	-1.8	-3.9%	0.4	4.8
COc1ccccc1C(=O)Nc1nnc(S(=O)(=O)N(C)Cc2ccccc2)s1	6.8	3.2	1.5	0.5%	0.2	0.0

Screening data from PubChem.

Hits appear at their usual frequency; overall some 1% were active at least once.
